Assay outcomes deposited in PubChem by ICCB-Longwood Screening Facility, Harvard Medical School.
Ba CapD inh: blocks the Bacillus anthracis CapD enzyme; actives 0.23% (n = 140,000); AID 492967; z-score (test concentration not listed); purified CapD enzyme, fluorescence intensity read-out; hits give low values; some hits fall short of the stated cut;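 active means z-score under -4 in either of two replicates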;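 further: stock transfer was 100 nL into about 40 µL; score is relative to mean and spread of the plate; one replicate is shown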
AID504770: growth inhibitors of E. coli YBA685 in a screen for V. cholerae RctB (chromosome II replication) inhibitors; E. coli YBA685 rctB-dependent plasmid, OD600 growth, 3 h; hits give low values; z-score (concentration not given with the values); actives 0.27% (n = 130,000);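 active means z-score under -2 on both plates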;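 further: wells of about 30 µL received 100 nL stock; score is relative to mean and SD of the test wells; the first replicate is given; strong numbers were not always called active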
* hit, by the source's call; . = not tested or not shown.

SMILES | Ba CapD inh | AID504770
COc1cccc(C2C(C#N)=C(N)Oc3n[nH]c(-c4ccc5c(c4)OCO5)c32)c1OC (stereo not given) | 0.56 | .
COc1ccc(C(C(=O)NN(C(=O)c2ccccc2OC)c2ccccc2)(c2ccccc2)c2ccccc2)cc1 | -0.33 | .
COc1ccc(/C=C2\C=C(c3ccccc3)N(c3cccc(Br)c3)C2=O)cc1 | 1.8 | .
NC(=O)C1CCN(C(=O)c2n[nH]c(=O)c3ccccc23)CC1 | -0.53 | .
CCOC(=O)/C=C1\CSCC(C(=O)OCC)N1 (stereo not given) | -0.18 | -0.45
COc1ccccc1NC(=O)CSc1nc2c(cc1C#N)CCCCC2 | -1.5 | .
CC(=O)N1c2ccc(S(=O)(=O)N3CCC(C(=O)N4CCn5c4nc4ccccc45)CC3)cc2CC1C (stereo not given) | -0.025 | 0.25
NC(=S)Nc1ccccc1OC(F)(F)F | 0.95 | 0.2
Oc1ccccc1-c1nc(N2CCCCC2)c2ccccc2n1 | -0.025 | 0.05
O=C(CCN1CCN(c2ccccc2)CC1)N/N=C1/CCCc2ccccc21 | . | -2.2
Cc1ccc(/C=C2/SC(=O)NC2=S)o1 | -0.34 | -0.2
CN(C)S(=O)(=O)c1ccc2nnn(OCC(=O)NC34CC5CC(CC(C5)C3)C4)c2c1 | . | 0.25
CCS(=O)(=O)NCCc1csc2nc(-c3ccccc3)nn12 | . | 0.7
O=S(=O)(c1ccc(Br)cc1OC(F)(F)F)N1CCN(Cc2ccc(Cl)cc2)CC1 | -1.4 | .
CCCc1c(C)nc(SCC(=O)C(C)(C)C)[nH]c1=O | 0.24 | 0.15
CN(C(=O)Nc1ccccc1)n1cnc2ccccc2c1=O | 0.65 | .
Nc1ccccc1C(=O)N1N=C(C(F)(F)F)CC1(O)c1ccccc1 (stereo not given) | 19 | .
Cc1cccc(N2CCN(C(=O)OCCN3CCN(Cc4cc5ccccc5o4)CC3)CC2C)c1 (stereo not given) | 0.08 | .
Cn1c(=O)c2[nH]c(SCC(=O)c3ccc(F)cc3)nc2n(C)c1=O | 0.6 | .
COc1ccc2c(OC)c3ccoc3nc2c1OC | 0.19 | .
NS(=O)(=O)C1CCC(F)CC1 (stereo not given) | . | -0.05
CS(=O)(=O)c1ccc(CN(C(=O)c2cc(Cl)nc(Cl)c2)C2CCN(Cc3ccccc3)CC2)cc1 | -0.31 | .
CC1(C)CC2(C)Nc3ccccc3N2C(=S)N1 (stereo not given) | -0.3 | .
O=C(O)CC(c1ccco1)N1Cc2ccccc2C1=O (stereo not given) | -0.065 | -0.95
COc1ccc(-c2cc(=O)c3cc(OC(=O)Cc4ccccc4)ccc3o2)cc1 | 0.065 | 0.65
Remaining list, next part
SMILES | Ba CapD inh | AID504770
O=C(O)CN1S(=O)(=O)c2ccccc2S1(=O)=O | -0.09 | .
O=S(=O)(Cc1ccc(Cl)cc1)c1ccc(C(F)(F)F)cn1 | 0.19 | -0.6
CC1=CC(=C2C(=O)c3ccccc3C2=O)C=C(C)N1CC(C)C | -1.3 | 0.85
CCOC(=O)N1CCC(NC(=O)c2cnn3ccccc23)CC1 | 21 | -0.45
Cc1onc(-c2c(Cl)cccc2Cl)c1NC(=O)NC(C)C | -0.1 | 0.4
O=C(O)/C=C/c1ccc2noc(-c3ccccc3)c2c1 | . | 1.4
COc1ccccc1C1Nc2ccc(Br)cc2C(c2ccccc2)O1 (stereo not given) | -0.31 | .
COc1cc(CNc2nn[nH]n2)ccc1OCC(N)=O | . | -0.65
CCOC(=O)c1ccc(N2CCOCC2)c(N=Cc2cc(Cl)ccc2O)c1 | 0.6 | .
CCOC(=O)c1cc(C)n(-c2ccc(C)c(C)c2)c1C | -0.7 | -0.1
O=C(CCN(Cc1ccco1)S(=O)(=O)c1cccc2nsnc12)NNC(=O)c1ccco1 | -0.77 | .
C=CCn1c(O)c(C#N)c(C)cc1=O | 22 | -0.5
O=C(NCc1cccnc1)C1CCC(c2ccc(Cl)cc2)CC1 (stereo not given) | -0.015 | -1.4
CCOC(=O)c1c(C)n(C)c2c1cc(OC(=O)c1cccc3ccccc13)c1ccccc12 | -0.8 | .
CN1C(=O)C2(NC(=O)c3ccccc3N2C)c2ccccc21 (stereo not given) | . | -0.2
COc1ccc2c3c(cccc13)C(=O)CC2 | 2 | .
CCc1ccc2c(c1)C1C=CCC1C(c1ccc(C(=O)O)cc1)N2 (stereo not given) | -1.1 | 0.2
Nn1c(CSc2ccccn2)nc2ccccc2c1=O | 0.14 | -0.4
COc1ccc(CN2C(=O)NC(=O)/C(=C\c3ccc(OC)c(OC)c3OC)C2=O)cc1 | 0.28 | .
O=c1c2cc(Br)ccc2nc(-c2ccc(Cl)cc2Cl)n1O | 0.06 | .
CC(C)(C)OC(=O)N1CCCN(C(=O)c2csc(-c3cnccn3)n2)CC1 | 0.15 | .
O=C(Nc1ccc(S(=O)(=O)N2CCOCC2)cc1)c1sc2ccccc2c1Cl | 0.42 | .
COc1ccc([N+](=O)[O-])c(OC)c1C(=O)Nc1ccc(F)c(Cl)c1 | -0.67 | .
O=S1(=O)CCC(NC(=S)N2CCCCC2)C1 (stereo not given) | -1.2 | -0.6
COc1cccc(OC)c1C(=O)N1CCCCC1 | 0.075 | 0.45

Reformatted as a markdown table: entries from further up.
| compound | Ba CapD inh | AID504770 |
| --- | --- | --- |
| COc1ccc(CN2C(=O)NC(=O)/C(=C\c3ccc(OC)c(OC)c3OC)C2=O)cc1 | 0.28 | . |
| COc1cccc(OC)c1C(=O)N1CCCCC1 | 0.075 | 0.45 |

Next part
SMILES | Ba CapD inh | AID504770
Nc1ccc(Cl)cc1C(O)c1ccccc1 (stereo not given) | -0.19 | -0.55
O=S(=O)(NCc1cccs1)c1c(F)cccc1F | -0.06 | -0.5
COc1ccc(S(=O)(=O)NC(CC(=O)N2CCCCC2)C(C)C)cc1 (stereo not given) | 0.8 | 0.95
N#Cc1ccc(NC(=O)c2cc3nc(-c4ccc5c(c4)OCO5)cc(C(F)(F)F)n3n2)cc1 | 0.56 | .
CCCSc1nnc(/N=C/NO)s1 | -0.035 | -1.1
CC(=O)N1c2ccc(S(=O)(=O)N3CCCN(Cc4ccc(F)cc4)C3)cc2CC1C (stereo not given) | -1.9 | -0.45
COc1cccc2c(Cl)c(CCCl)c(C)nc12 | 1.7 | -0.9
O=C(C1CCCN(CC2CC3C=CC2C3)C1)N1CCC(Cc2ccccc2)CC1 (stereo not given) | -0.34 | -0.15
COc1ccc(Cl)cc1-c1nc(C=Nc2ccc(C)cc2Br)c(O)o1 | -0.18 | .
CCOC(=O)N1CCC(NC(=O)Nc2ccc(F)cc2)CC1 | 0.92 | -0.15
COC(=O)c1ccccc1NC(=O)c1ccccc1Br | 1.8 | -0.35
CCNS(=O)(=O)c1ccc(SC)cc1 | 0.44 | 0.05
C/C(Nc1ccc(F)cc1)=C1/CCOC1=O | -0.48 | 0.45
O=c1oc(-c2ccccc2N=Cc2sc3ccccc3c2O)nc2ccccc12 | 1 | -2.1
O=C1c2ccccc2-c2c1c1ccccc1c(=O)n2Cc1ccc2c(c1)OCO2 | 0.24 | 1
CCN(CC)S(=O)(=O)N1CCC(C(=O)NCCc2ccccc2)CC1 | 0.48 | 0.1
Cc1cc(C)c2c(N)c(C(=O)C(C)(C)C)sc2n1 | 1.2 | -1
CCC1CCc2sc(C(=O)O)cc2C1 (stereo not given) | . | -0.3
OCC1CCCC1O (stereo not given) | 0.26 | -0.2
CCC(Sc1ccccn1)C(=O)Nc1cccc2ccccc12 (stereo not given) | 0.75 | -0.1
COc1ccc(CN(Cc2ccc(OC)cc2)S(=O)(=O)c2c(C)noc2C)cc1 | 0.41 | -0.75
C=CCn1c(SCN2C(=O)c3ccccc3C2=O)nnc1C1CCCCC1 | . | -0.6
COC(CNC(=O)c1ccc2c(c1)N(Cc1cc(C)ccc1C)C(=O)c1ccccc1S2=O)OC (stereo not given) | 57 | -0.2
O=C(OCC1CCCCN1Cc1ccco1)N1CC=C(n2c(=O)[nH]c3ccccc32)CC1 (stereo not given) | 0.2 | .
CC(C)c1nc2ccc(Cl)cc2c2c1C(=O)N(CC1(O)CCCCC1)C2=O | -1.1 | .

Some values from the entries so far:
Entry for CCOC(=O)N1CCC(NC(=O)Nc2ccc(F)cc2)CC1 in AID504770: -0.15
Entry for CCCSc1nnc(/N=C/NO)s1 in AID504770: -1.1
Entry for COC(=O)c1ccccc1NC(=O)c1ccccc1Br in Ba CapD inh: 1.8
Entry for OCC1CCCC1O (stereo not given) in AID504770: -0.2
Entry for C/C(Nc1ccc(F)cc1)=C1/CCOC1=O in Ba CapD inh: -0.48

(further entries)
SMILES | Ba CapD inh | AID504770
CCOC(=O)c1c(-c2ccccc2)oc2c1cc(OC(=O)c1c(Cl)c(Cl)c(Cl)c(Cl)c1Cl)c1ccccc12 | -1 | .
COc1ccc(/C=C2/SC(=O)N(CC(=O)NCCO)C2=O)cc1OC | 0.1 | 0.4
CCCc1cc2c(=O)c(-c3ccc4c(c3)OCO4)c(CCC)oc2cc1O | -0.07 | -1.2
CC(C)c1c(C#N)c(N)nc(SC2CC(=O)N(c3ccccc3)C2=O)c1C#N (stereo not given) | 7.4 | .
COC(=O)Cn1cnc2c(C#N)c3n(c2c1=O)CCCC3 | -0.28 | .
O=C(NCc1ccccc1)C1CC(=O)N(C2CCCCCC2)C1 (stereo not given) | -0.9 | -0.7
CC(C)CC(C(=O)O)N1C(=O)/C(=C\c2cccn2C)SC1=S (stereo not given) | . | 0.85
OCCCc1[nH]nc(-c2ccc(Cl)cc2)c1Br | -0.86 | -0.8
CN(C(=O)COC(=O)c1cc(=O)[nH]c(=O)[nH]1)C1CCCCC1 | . | 1.6
Cc1cccc(Cl)c1S(=O)(=O)N1CCN(c2ccccn2)CC1 | 0.72 | .
O=C(N/N=C/c1cn(-c2ccccc2)nc1-c1ccccc1)c1cccc([N+](=O)[O-])c1 | -0.085 | .
CCCC1=C(C(=O)OCC)C(c2ccc(C)cc2)C(C#N)=C(N)O1 (stereo not given) | 10 | .
O=C(NCCCN1CCCCC1)c1ccc2c(c1)ncn2C1CCCC1 | -0.28 | -0.5
COc1cc(OC)cc(-c2nc(N)c3c(C)c(-c4ccc(OC)c(OC)c4)sc3n2)c1 | 94 | -0.65
Cc1ccc(NC(=O)c2c(NC(=O)c3ccccc3F)sc3c2CCCCC3)c(C)c1 | 0.41 | .
CC1(C)Cc2ccccc2C(N/N=C/c2ccncc2)=N1 | . | -0.65
CCNC(=O)N(c1ccc2c(c1)CCN2S(C)(=O)=O)C1CCN(C)CC1 | 0.33 | .
Cc1cc(C(=O)OCc2nc3ccccc3c(=O)n2CC#N)c(C)n1-c1ccc(F)cc1 | . | 0.05
CC(C(=O)NCc1ccccc1)C1Sc2ccccc2N(Cc2cccc(Cl)c2)C1=O (stereo not given) | 0.71 | 0.85
C(=NC12CN3CN(CN(C3)C1)C2)c1cccnc1 | -0.89 | -1.5
COc1cccc(OC)c1C(=O)N1CCN(C(=O)c2ccccc2)CC1 | 0.22 | 0.2
O=C(Cn1cnc2c(oc3ccccc32)c1=O)NCc1ccccc1 | -0.72 | -1.1
Cc1ccc(-c2nnc(SCC(=O)OC(C)C)o2)cc1 | 1.1 | -0.05
O=C(c1ccccc1F)N1CCN(c2cc(N3CCCCC3)c(F)cc2[N+](=O)[O-])CC1 | -0.14 | .
COc1cccc(-n2c(=O)c3c(C)c(C)sc3n(CC(=O)NCCC3=CCCCC3)c2=O)c1 | 0.51 | 2.2

Not a retest: entries from further up.
SMILES | Ba CapD inh | AID504770
CCOC(=O)c1c(-c2ccccc2)oc2c1cc(OC(=O)c1c(Cl)c(Cl)c(Cl)c(Cl)c1Cl)c1ccccc12 | -1 | .
COc1ccc(/C=C2/SC(=O)N(CC(=O)NCCO)C2=O)cc1OC | 0.1 | 0.4
CCCc1cc2c(=O)c(-c3ccc4c(c3)OCO4)c(CCC)oc2cc1O | -0.07 | -1.2

Going on with the list.
SMILES | Ba CapD inh | AID504770
CCOC(=O)c1cc(C(C)(C)C)[nH]c(=O)c1C#N | 0.29 | .
Cn1ccnc1C(=O)c1ccc(F)cc1 | . | -1.4
Fc1ccc(-c2nnc3ccc(SCc4ccccc4)nn23)cc1 | 0.6 | 0.65
O=C(COc1ccccc1)NC(Cc1ccccc1)C(=O)O (stereo not given) | -0.54 | 1.5
N#Cc1ccc(OCC(=O)N2CCN(C/C=C/c3ccccc3)CC2)cc1 | 0.17 | 0.8
COc1ccc2oc(=O)c(-c3nnc(Nc4cc(C(F)(F)F)ccc4Cl)s3)cc2c1 | 0.14 | .
FC(F)(F)c1cc(-c2ccc(Cl)cc2)nc(N2CCOCC2)n1 | 0.34 | .
CN1CCN(Cc2oc(CO)cc(=O)c2O)CC1 | 0 | -0.85
Cc1ccc(C(=O)N2CCN(C(=O)CN3CCCC3)C2)cc1 | -0.37 | .
COc1ccc(CNc2nc(SCC(=O)n3nc(N)cc3C)nc3ccccc23)cc1 | -0.18 | .
CCOC(=O)N1CCC(NC(=O)c2ccc(N3CC4CC(C3)c3cccc(=O)n3C4)c(NC(=O)c3ccncc3)c2)CC1 (stereo not given) | -0.11 | .
CC(C)=N/N=C1/NC(=O)C(CC(=O)Nc2ccc(C(=O)O)cc2)S1 (stereo not given) | 0.42 | -0.55
Cc1ccc2c(c1)-c1c(sn(-c3ccc(C(C)C)cc3)c1=S)C(C)(C)N2 | -0.78 | .
CC(=O)N(/N=c1\sc2ccccc2n1C(C)=O)C(C)=O | . | -0.3
CCOC(=O)c1c(NC(=O)c2ccco2)sc(C(=O)Nc2cc(C(F)(F)F)ccc2Cl)c1C | 0.24 | .
CCOC(=O)C1=C(C)N=c2s/c(=C\c3ccc(OCC)cc3)c(=O)n2C1c1cc(OC)ccc1OC (stereo not given) | 0.53 | .

Exported tab-delimited: 3 of the compounds above
SMILES	Ba CapD inh	AID504770
Cc1ccc2c(c1)-c1c(sn(-c3ccc(C(C)C)cc3)c1=S)C(C)(C)N2	-0.78	.
O=C(COc1ccccc1)NC(Cc1ccccc1)C(=O)O (stereo not given)	-0.54	1.5
Cn1ccnc1C(=O)c1ccc(F)cc1	.	-1.4

A portion of the library; count on the stated rates, not on these rows.
